Autofluor counter – counter-screen for toxin protease inhibitors: compound fluorescence; 3.1% of 360,000 active; fluorescence intensity (no concentration beside the values); AID 624483; compound autofluorescence counterscreen, microsphere flow cytometry; hits give high values;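 active means at least 3 SD above the mean of all compounds, about 16000 in these data; inconclusive means too few beads counted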;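 further: 100 nL of 1 mM stock went into each well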
RN4220 kill – growth inhibition of S. aureus RN4220, primary screen, OD600 | AID 1259311, 2017 | inhibition, % (no concentration beside the values) | 16 h | 0.33% of 330,000 active;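 active means z-score of -3 or lower and OD600 up to 0.18 on both plates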;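 further: plate controls were untreated cells for no effect and reference antibiotic for full effect; stock transfer was 100 nL into about 80 µL; one replicate is shown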
Mtb hypoxia rep – PubChem AID 1159583 | fluorescence inhibition, % (concentration not given with the values) | M. tuberculosis hypoxia-regulated fluorescent reporter, fluorescence | 0.1% of 300,000 active;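 active means 35 to 45% if threefold the growth effect, above 45% if 1.5-fold the growth effect; inactive means the rest, general growth blockers included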;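 further: wells of about 50 µL received 100 nL stock; 0% = vehicle wells and 100% = reference inhibitor wells; whole bacteria with a GFP reporter of the hypoxia response; strong numbers were not always called active; many hits fall short of the cut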
PrP 5UTR inh – inhibition of PrP 5' UTR reporter expression; 0.35% of 340,000 active; cell-based PrP 5' UTR mRNA reporter, plate reader; inhibition, % (no concentration beside the values);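 active means every replicate at 50% or more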;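 further: 0 = median of the neutral control wells; tested in H4 reporter cells; numbers are from one replicate; inactives centre near -14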
ugtP null kill – growth inhibition of ugtP-null S. aureus, primary screen, RN4220 ugtP deletion, OD600; AID 1259309, 2017; 16 h; some inactives read as strong as hits; 0.54% of 330,000 active; growth inhibition, % (test concentration not listed);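 active means z-score under -3 and OD600 up to 0.15 on both plates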;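 further: plate controls were untreated wells for no effect and antibiotic for full effect; wells of about 80 µL received 100 nL stock; the first replicate is given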
BJeLR lethal – MLPCN primary cell-based screen for lethality selective to Ras in HRASV12 cells | inhibition, % (test concentration not listed) | 0.17% of 300,000 active | BJeLR (HRASV12) viability, CellTiter-Glo ATP luminescence, 48 h; reference of the scale not given here | AID 1554, 2009;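 active means replicate mean above 50%; inconclusive means above 50% but judged a plate artefact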;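 further: 50 nL library stock added to about 25 µL; numbers are from one replicate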
Mtb hypoxia rep growth – further read-out of Mtb hypoxia rep, marked with its call; growth inhibition, %; measured here: M. tuberculosis growth (absorbance);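 0% = vehicle and 100% = reference antibiotic; read after six days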
Numbers without * were called inactive; ? = inconclusive; · = not tested or not shown; & = joins results of further samples. An unsorted share of the library. Share with any hit: about 3.9%.

Structure	Autofluor counter	RN4220 kill	Mtb hypoxia rep	Mtb hypoxia rep growth	PrP 5UTR inh	ugtP null kill	BJeLR lethal
COc1ccc(S(=O)(=O)n2nc(OCc3cccs3)cc2N)cc1	2912	6.4	1.9	-5.7	-13.0	-1.4	-6.3
Cc1ccc(N2C(=O)c3sc4nnc(C)c(=O)n4c3C2=O)cc1	14926	7.1	-2.4	1.6	-58.1	-1.3	-8.7
O=C(NCCCN1CCOCC1)c1nn(-c2ccccc2)c(=O)c2ccccc12	?	2.6	5.5	2.0	-50.7	-1.1	10.2
O=C(Nc1ccc(Cl)cc1)c1cccnc1N1CCCCC1	16045	-0.6	13.4	3.2	-3.5	1.4	-2.7
Oc1ccccc1-n1nc2ccc3nonc3c2n1	?	-1.1	2.3	-7.7	-13.3	4.0	-6.3
N=C(N)c1ccccc1	5322&5749	3.1&6.0	6.6&4.1	-0.6&11.9	-19.5&-8.9	1.6&0.5	-8.7&-5.2
CC(=O)N1C(C)(C)CC(=NOC(=O)c2ccc(C)cc2)CC1(C)C	4491	0.9	-9.5	2.0	-10.7	-4.2	-0.9
COc1ccc(C(=O)Nc2cccnc2Cl)cc1OC	3951	0.9	0.2	13.4	-33.9	1.7	-17.9
O=C(Nc1ccc(S(=O)(=O)NC2=NCCCCC2)cc1)c1cc(S(=O)(=O)N2CCOCC2)ccc1F	5139	0.0	3.4	8.9	-18.4	1.7	-6.1
COc1ccc(-c2nc(CN3CCC(C(=O)NC4CCN(Cc5ccccc5)CC4)CC3)c(C)o2)cc1OC	5313	-1.2	5.8	-1.3	-27.9	1.8	12.2
Cc1cc([N+](=O)[O-])ccc1NC(=O)c1ccco1	2376	-4.4	-2.1	9.0	-14.2	-1.8	-2.9
CC(C)(CSc1ncccn1)NS(=O)(=O)c1ccccc1	3946	1.7	4.9	-1.0	-4.4	3.6	-3.6
CCCCN(C(=O)C1CC(=O)N(Cc2ccc(C)cc2)C1)c1c(N)n(CCCC)c(=O)[nH]c1=O (stereo unspecified)	?	2.2	3.1	3.4	-8.6	5.3	11.3
Cc1nn(-c2ccccc2)c(Cl)c1C(=O)Nc1c(C)n(C)n(-c2ccccc2)c1=O	10423	-5.1	-0.7	2.7	-6.1	-1.9	4.4
Cc1ccc2nc(C)cc(N/N=C/c3ccc(F)cc3)c2c1	4823	·	·	·	-15.0	·	4.2
O=C(c1ccc(Cl)cc1Cl)N1CCSCC1	4106	3.8	16.7	7.0	-6.1	10.1	-9.0
Cc1ccc(S(=O)(=O)N(C)C)cc1NC(=O)CSc1ncc(C(F)(F)F)cc1Cl	2189	-1.9	3.1	5.2	-9.3	1.2	1.7
CC(=O)CSc1ncnc2sc3c(c12)CCC3	4240	5.1	3.7	12.0	10.0	3.9	10.0
CCC1C2Cn3c(nc4ccccc43)C1N(C)O2 (stereo unspecified)	4408	3.8	3.6	-0.6	-13.4	-0.9	-7.5
CCc1ccc(NC(=O)c2cc(S(=O)(=O)N3CCCC3)c[nH]2)cc1	4398	6.7	5.2	7.5	-0.4	15.3	-4.5
Cc1ccc(NC(=O)c2cccc(S(=O)(=O)N3CCN(c4ccccc4)CC3)c2)nc1	5698	7.6	4.9	13.8	-18.5	-3.3	-3.0
Cc1cc(C)c(S(=O)(=O)Cc2ccccc2)c(OC(C)C)n1	3761	7.5	3.0	2.7	-20.7	5.7	-1.9
COC(=O)C1=C(C)N(c2ccc(OC)cc2)C(=O)/C1=C\c1cccs1	2092	6.0	-14.8	-13.5	-34.8	5.6	7.1
CC(C)(C)NC(=O)NC(=O)COC(=O)c1cccc(OC(F)F)c1	4148	17.2	3.4	-0.8	-14.2	5.4	-3.2
C#CCOCCOCCOCCNc1nc(N2CCN(C(=O)C(CCCCN)n3cc(CN)nn3)CC2)nc(N2CCN(C(=O)C(CO)n3cc(C(N)C(C)C)nn3)CC2)n1 (stereo unspecified)	·	3.4	5.1	12.8	·	-0.8	·
COc1ccc(C=NNC(=O)CC(=O)NN=Cc2ccc(OC)cc2)cc1	·	3.6	-7.7	0.5	·	11.1	·
O=[N+]([O-])c1ccc2ccn(C3OCC(O)C(O)C3O)c2c1 (stereo unspecified)	4151	1.5	-0.7	4.6	-16.5	11.1	·
O=C(NCC1CCC(C(=O)O)CC1)OCc1ccccc1 (stereo unspecified)	2589	2.3	10.7	18.4	7.8	0.7	2.5
COc1ccc(CN2CCC(n3nccc3NC(=O)c3ccc4c(c3)OCO4)CC2)cc1C	6024	-0.5	-10.2	7.1	-5.6	-0.3	4.2
COc1cccc(CC2(CO)CCCN(C(=O)c3cc[n+]([O-])cc3)C2)c1 (stereo unspecified)	4764	2.5	-7.2	5.9	-24.0	7.4	-2.3
OCc1cn(-c2ccccc2)nc1-c1ccco1	13644	2.5	7.9	-5.8	-44.0	-0.2	4.0
Cc1ccc(-n2c(=O)[nH]cc(C(=O)Nc3ccc4c(c3)OCCO4)c2=O)cc1	8066	6.3	7.9	4.4	-8.2	2.6	-1.5
COc1ccc([N+](=O)[O-])cc1NC(=O)CSc1ncccn1	4759	-0.5	-0.9	8.9	-6.3	-1.5	-1.9
C/C(=N\NC(=O)Cn1ccc(C(F)(F)F)n1)c1ccc(N2CCOCC2)cc1	6132	·	·	·	-34.0	·	-1.7
O=C(CN1CCN(S(=O)(=O)c2ccc(F)cc2)CC1)Nc1ccccc1F	2501	2.1	·	·	-0.4	-0.9	-6.3
COc1ccccc1Sc1ccccc1/C=N/NC(N)=O	4351	·	·	·	-11.2	·	9.0
CC1(C)CC(=O)C2=C(C1)OC(N)=C(C#N)[C@@]21C(=O)N(CC(N)=O)c2ccccc21	3515	-2.4	·	·	-0.3	-6.7	5.7
CCC1Nc2ncnc(N3CCN(c4ccccn4)CC3)c2N(Cc2ccc(Br)cc2)C1=O (stereo unspecified)	2966	1.4	-9.8	2.2	-13.8	-0.9	·
Cc1nnc(SCCn2c(N3CCCCC3)nc3c2c(=O)n(C)c(=O)n3C)s1	3728	3.8	22.3	-0.6	-10.0	12.1	-1.2
Cc1cccc(/C=N/NC(=O)c2ccncc2)n1	3133	·	·	·	-23.8	·	-0.7
Cc1ccc(S(=O)(=O)CCC(=O)Nc2cc(Cl)ccc2-n2cncn2)cc1	?	1.0	5.5	0.0	-15.0	3.7	-1.7
CCOc1ccc(NS(=O)(=O)c2ccc(C(=O)NNC(=O)c3ccccc3O)cc2)cc1	?	7.0	-5.1	-11.3	-14.4	-7.5	2.3
Cc1[nH]n(C(N)=S)c(=O)c1N=Nc1cccc(Cl)c1	3715	0.1	2.7	3.7	-38.7	9.9	4.9
Cc1cccc(N=C2NC(=O)/C(=C/c3cccnc3)S2)c1C	5618	4.5	8.9	3.1	-25.9	-29.9	-4.6
Cc1cc(C)cc(NC(=O)[C@H](NC(=O)[C@@H]2Cc3ccccc3CN2)c2ccccc2)c1	5407	-1.9	-8.3	-1.3	-19.1	-13.7	-5.3
O=C(O)CCc1nc2ccccc2c(=O)[nH]1	3557	2.3	7.9	1.1	-14.0	-2.6	3.4
Cc1ccc(-c2nc(NC(=O)CSc3ccc4ccccc4n3)ns2)cc1	5785	-2.8	·	·	-18.1	2.3	-11.4
CC(C)c1ccccc1NC(=S)N1CCN(S(=O)(=O)c2cccs2)CC1	4342	3.3	-1.2	6.2	86.9*	2.7	-2.8
O=C(COC(=O)C1CC(=O)N(Cc2ccco2)C1)c1ccc(OC(=O)c2ccco2)cc1 (stereo unspecified)	9429	19.5	1.3	-1.4	-8.1	-13.3	-11.9
COc1cc2[nH]c3ccccc3c2cc1C	5898	7.4	·	·	-6.5	14.3	-2.1

(next part)
Structure	Autofluor counter	RN4220 kill	Mtb hypoxia rep	Mtb hypoxia rep growth	PrP 5UTR inh	ugtP null kill	BJeLR lethal
Cc1ccc(S(=O)(=O)N2CCN(C(=O)CCn3nc(C)c(C)c3C)CC2)cc1C	3212	4.4	14.2	-1.3	6.6	-3.6	-0.1
O=C(CCl)Nc1cccc(-c2cnc3ccccc3n2)c1	3383	3.2	15.0	16.0	-45.3	-14.1	12.7
CC(=NO)C(C)(C)Nc1cccc(F)c1	·	1.7	-1.2	4.5	·	2.2	·
C#CCNC(=O)C1=CC(c2ccc(Br)cc2)CC(OCc2ccc(CO)cc2)O1 (stereo unspecified)	·	11.9&7.8	1.7&2.2	-7.1&-6.2	·	3.9&6.1	·
COc1ccc(NC(=O)c2sc3nc(-c4cccnc4)ccc3c2N)cc1OC	3472	5.4	12.7	8.0	-5.1	18.2	-5.1
Cn1c(=O)oc2cc(S(=O)(=O)N3CCCC(C(=O)Nc4ccccn4)C3)ccc21 (stereo unspecified)	5745	2.2	3.1	13.2	-27.7	4.2	6.6
O=C(Nc1ccc2nc3n(c(=O)c2c1)CCCC3)c1cccc(F)c1	3708	5.6	-1.9	0.4	-38.2	4.9	2.8
COc1ccc(NC(=O)CN(C)S(=O)(=O)c2ccc3c(c2)n(C)c(=O)c(=O)n3C)cc1	3887	-0.1	-1.5	-4.6	-11.7	2.1	-2.4
CCc1cccc(CC)c1N(COC)C(=O)Cn1ccccc1=N	2735	0.7	8.2	12.9	-8.0	1.4	5.7
Cc1ccnc(SCC(=O)N2CCCc3ccccc32)n1	4232	1.6	6.6	8.1	-51.3	10.6	-1.4
CCCCCCCCCCCCS(=O)(=O)CCC(=O)O	5142	3.2	7.7	3.9	4.9	1.1	3.9
O=C(CN(Cc1ccco1)C(=O)CNS(=O)(=O)c1ccc(F)cc1)NCc1ccc(F)cc1	5595	6.2	·	·	-5.6	6.4	-3.7
COc1ccc(-c2onc(C)c2-c2cnn(-c3ccccc3)c2)c(O)c1C	4551	-0.5	-5.4	6.9	-15.4	-1.8	1.6
CCCCOc1ccc(C(=O)NCC(=O)NCC(c2cccs2)N2CCOCC2)cc1 (stereo unspecified)	3805	3.6	8.1	10.9	-1.7	5.2	·
CCCOc1ccc(/C=N/Nc2ccccc2[N+](=O)[O-])c(OCCC)c1	1242	·	·	·	-19.9	·	5.4
O=C(c1ccc2ccccc2c1)N1CCN(c2ccc([N+](=O)[O-])c(N3CCOCC3)c2)CC1	11440	-1.8	-0.2	7.9	-9.2	0.7	0.8
CCCCCC1=C(C(=O)OC)C(C(=O)OCC)N(S(=O)(=O)C(F)(F)F)c2ccccc21 (stereo unspecified)	3405	5.4	-2.2	5.2	-57.9	42.2	·
O=C(CSc1nc2ncc(Cl)cc2[nH]1)c1ccc2c(c1)OCO2	6719	5.4	11.6	-6.4	·	-12.6	1.4
CCOc1ccc(/C=C\C(C)=N\O)cc1	7133	·	·	·	-237.3	·	0.7
CC(C)Nc1nc(NC(C)C)nc(Nn2cnnc2)n1	4633	1.1	0.8	-0.5	-24.5	1.5	1.9
O=C(NN=Cc1c[nH]c2ccccc12)c1cccc([N+](=O)[O-])c1	·	4.3	-3.9	10.0	·	-0.4	·
Cc1cccc(C(=O)OCc2cnc(Cl)s2)c1	3374	8.4	7.1	-6.3	-21.3	-2.7	-5.8
CCOC(=O)C1CCCN(c2nc3ccccc3nc2C(C#N)C(=O)OC(C)COC)C1 (stereo unspecified)	2640	3.0	-2.8	5.6	-8.5	1.1	-24.5
COc1ccc(C)cc1S(=O)(=O)Nc1ccncc1	3825	3.1	8.2	-4.9	-1.6	2.5	-15.1
Cc1[nH]n(-c2ccccc2)c(=O)c1CCO	4688	1.4	-6.1	3.4	-21.8	1.9	-4.6
Cc1cc(NS(=O)(=O)c2ccc(NC(=O)COc3ccc(C#N)cc3)cc2)nc(C)n1	3324	2.1	7.9	10.4	-9.7	-1.3	·

A different layout for some results above:
COc1ccc(C(=O)Nc2cccnc2Cl)cc1OC
  Autofluor counter = 3951
  RN4220 kill = 0.9
  Mtb hypoxia rep = 0.2
  Mtb hypoxia rep growth = 13.4
  PrP 5UTR inh = -33.9
  ugtP null kill = 1.7
  BJeLR lethal = -17.9
O=C(Nc1ccc(S(=O)(=O)NC2=NCCCCC2)cc1)c1cc(S(=O)(=O)N2CCOCC2)ccc1F
  Autofluor counter = 5139
  RN4220 kill = 0.0
  Mtb hypoxia rep = 3.4
  Mtb hypoxia rep growth = 8.9
  PrP 5UTR inh = -18.4
  ugtP null kill = 1.7
  BJeLR lethal = -6.1
COc1ccc(-c2nc(CN3CCC(C(=O)NC4CCN(Cc5ccccc5)CC4)CC3)c(C)o2)cc1OC
  Autofluor counter = 5313
  RN4220 kill = -1.2
  Mtb hypoxia rep = 5.8
  Mtb hypoxia rep growth = -1.3
  PrP 5UTR inh = -27.9
  ugtP null kill = 1.8
  BJeLR lethal = 12.2
